Vif TR-FRET – inhibitors of Vif binding to APOBEC3G peptide, primary screen, biochemical, TR-FRET, GST-Vif 1-94, biotin-A3G peptide, dose response retest (AID 1117319). TR-FRET GST-Vif / biotin-A3G peptide binding; higher % means a stronger effect; test concentration not given here; strong numbers were not always called active. inhibition, %, or IC50 in µM where a hit was titrated. actives 0.57% (n = 260,000);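 active = above the screen mean plus three standard deviations and confirmed in dose response; inconclusive = results disagree or hit not tested in dose response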;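 note: Vif residues 1-94 fused to GST binding biotinylated APOBEC3G peptide 110-148; 0% = full assay without inhibitor and 100% = GST in place of GST-Vif; retest series ran down from 100 µM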
AF4-AF9 inh – blocks AF4 peptide binding to human AF9; P42568; AlphaScreen, biotin-AF4 peptide binding to FLAG-AF9; inhibition, % at 10 µM; actives 0.47% (n = 350,000);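 active = every replicate reaching a set inhibition limit, whatever the replicate mean, cut at about 25% in these data; inconclusive = mean inhibition reaches that limit but some replicates miss it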;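 note: 0% = plate neutral control median and 100% = total signal loss; the record names both 10 and 1 µM as test concentration; the first replicate is given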
Target sequence (P42568 whole entry, looked up): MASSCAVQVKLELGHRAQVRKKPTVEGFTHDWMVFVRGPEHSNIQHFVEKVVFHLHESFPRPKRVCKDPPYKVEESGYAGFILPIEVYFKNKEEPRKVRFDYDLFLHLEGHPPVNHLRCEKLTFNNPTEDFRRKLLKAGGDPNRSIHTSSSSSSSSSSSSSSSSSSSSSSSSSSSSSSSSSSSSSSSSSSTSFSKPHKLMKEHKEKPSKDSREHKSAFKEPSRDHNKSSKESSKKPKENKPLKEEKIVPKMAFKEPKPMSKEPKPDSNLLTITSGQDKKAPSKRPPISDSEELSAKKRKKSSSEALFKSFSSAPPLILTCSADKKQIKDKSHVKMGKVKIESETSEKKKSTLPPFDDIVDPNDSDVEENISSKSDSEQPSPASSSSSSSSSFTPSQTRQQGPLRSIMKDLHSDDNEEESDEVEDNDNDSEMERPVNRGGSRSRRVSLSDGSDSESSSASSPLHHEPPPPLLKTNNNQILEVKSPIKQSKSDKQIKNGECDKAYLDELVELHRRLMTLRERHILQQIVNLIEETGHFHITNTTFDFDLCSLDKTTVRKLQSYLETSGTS
UCH37 DUB inh – inhibitors of human deubiquitinating enzyme UCH37; Q9Y5K5; actives 0.33% (n = 330,000); purified proteasome/UCH37, Ub-AMC cleavage fluorescence; AID 588478; inhibition, % (test concentration not listed);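 active = mean of two replicates above 20%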;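 note: 0% = compound-free wells with enzyme and 100% = wells lacking proteasome; stock transfer was 100 nL into about 20 µL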
Target sequence (Q9Y5K5 whole entry, looked up): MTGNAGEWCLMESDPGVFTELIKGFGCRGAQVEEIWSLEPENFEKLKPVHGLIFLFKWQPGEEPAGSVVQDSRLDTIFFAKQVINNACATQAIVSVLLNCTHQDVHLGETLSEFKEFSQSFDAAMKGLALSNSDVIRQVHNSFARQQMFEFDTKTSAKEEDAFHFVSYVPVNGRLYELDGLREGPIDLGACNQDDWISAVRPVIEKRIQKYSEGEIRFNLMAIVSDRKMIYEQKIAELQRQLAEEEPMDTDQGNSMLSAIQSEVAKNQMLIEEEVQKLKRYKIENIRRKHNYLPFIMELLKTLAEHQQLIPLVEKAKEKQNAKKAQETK
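System: Proteasome-associated human UCH37 deubiquitinase; Input: 0.15 nM proteasome in added enzyme buffer; Also added: Ub-AMC substrate from 1 µM stock; Incubation: 30 min compound-proteasome preincubation then 25 min substrate reaction, room temperature; Detection: fluorescence, ex 355 nm, em 460 nm; Read-out: % inhibition of Ub-AMC cleavage fluorescence; Benchmarks: no-proteasome and no-compound wells.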
E coli growth – inhibitors of Escherichia coli growth; OD600, 23 h; active compounds read low; OD600 absorbance (test concentration not listed); AID 1053175; actives 0.21% (n = 330,000);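 active = OD600 absorbance below the run mean of sample wells minus 3.6 SD, in any replicate, cut at about 0.56 in these data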;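 note: stock transfer was 300 nL into about 60 µL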
FGF22 binding – shifts melting point of recombinant human FGF22. Q9HCT0. recombinant FGF22 thermal shift, SYPRO orange fluorescence; percent of sucrose octasulfate shift, DMSO zero. calls only at 9.99 µM. actives 1.5% (n = 340,000). AID 651658;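 active = melting point raised past a set limit in the mean and every replicate; inconclusive = no clear call; three in four hits are not shown here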
Target sequence (Q9HCT0 whole entry, looked up): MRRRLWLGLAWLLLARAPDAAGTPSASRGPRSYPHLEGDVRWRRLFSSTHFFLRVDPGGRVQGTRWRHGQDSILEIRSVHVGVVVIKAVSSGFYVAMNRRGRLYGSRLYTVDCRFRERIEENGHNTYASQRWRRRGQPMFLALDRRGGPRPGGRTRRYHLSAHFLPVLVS
RanGTP-Imp inh – inhibitors of RanGTP-importin-beta interaction, primary screen, biochemical, FRET, CFP-Ran, YFP-importin-beta, homogeneous. cell-free CFP-Ran/YFP-importin-beta FRET ratio. inhibition, % (concentration not given with the values). actives 1.1% (n = 300,000). AID 2216;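 active = most replicates above 15%; inconclusive = exactly half above 15%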;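 note: 0% = DMSO wells and 100% = Ran loaded with GDP instead of GTP; wells of about 40 µL received 100 nL stock; the first replicate is given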
HNF4A DNA FP – change in binding of human HNF4 alpha to DNA | P41235 | actives 0.3% (n = 360,000) | HNF4a-FITC DNA binding, fluorescence polarization, 1 h | AID 1224865 | activity change, % at 10 µM; in the data active = activity change above about 30%, passing the limit was not always enough;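 note: controls were the assay level and a saturating level of protein; the project sought stronger binding though the title names inhibitors; some compounds called inactive have numbers as strong as hits; positive values seem to mean higher polarization but the record does not say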
The depositor's hits bear a star; i = inactive; ? = inconclusive; . = no result given. An excerpt, so the mix of outcomes need not match the whole.

Vif TR-FRET | AF4-AF9 inh | UCH37 DUB inh | E coli growth | FGF22 binding | RanGTP-Imp inh | HNF4A DNA FP | SMILES
7.6% | 2.0 | -0.9 | 0.684 | . | 4.2 | 2.5 | CCCNC(=O)CNC(=S)N(Cc1ccccc1F)C1CCCCC1
. | -0.1 | -27.7 | 0.699 | i | -1.2 | -1.6 | O=C(Nc1nc2ccccc2[nH]1)c1cc(F)cc(F)c1
-2.4% | -0.1 | 1.9 | 0.652 | i | 1.3 | -4.4 | CN1CCN(C(=O)CSc2ccc(Cl)cc2)CC1
-0.1% | -5.8 | 3.7 | 0.698 | i | -2.1 | -3.0 | COc1cccc(-c2n[nH]c(=S)n2Cc2ccco2)c1OC
-4.4% | . | -0.7 | 0.725 | . | 2.2 | 3.8 | CC(=O)c1cccc(NC(=O)N2CCCC2C(=O)Nc2cc(C)ccc2C)c1 (centres undefined)
13.0% | . | 8.9 | 0.726 | . | -2.4 | 1.1 | O=c1oc2ccccc2cc1C1=Nn2c(nnc2-c2cccnc2)SC1
. | -0.6 | 2.3 | 0.668 | i | 2.3 | 5.1 | Nc1n[nH]c(C2CCCCC2)n1
6.0% | -1.4 | 0.8 | 0.712 | i | 2.0 | 2.7 | O=C(NCc1n[nH]c(=S)n1-c1ccc([N+](=O)[O-])cc1)c1ccc(S(=O)(=O)N2CCOCC2)cc1
29.9% | 0.1 | 15.4 | 0.757 | . | 4.3 | -8.0 | O=C(O)c1cccc(-n2cccc2C=C2C(=O)c3ccccc3C2=O)c1
-7.0% | -2.9 | -2.2 | 0.725 | i | . | -22.0 | C=CCC[C@@H](Cc1ccc(F)cc1)C(=O)OC[C@@H](Cc1c[nH]c2ccccc12)NC(=O)[C@@H](CC=C)CC(=O)N(CCO)Cc1ccccc1
. | . | 3.2 | . | . | 8.5 | 1.6 | O=C(CSc1nc2ccccc2c(=O)n1-c1ccccc1)N1CCCc2ccccc21
. | -1.8 | . | . | i | . | -9.2 | CC(=O)Nc1cccc(-c2ccnc3c2CC(C(=O)NCCN(C)C)O3)c1 (centres undefined)
-7.2% | -2.5 | . | . | i | . | -0.7 | N#Cc1csc(CCNC(=O)c2ccccc2)n1
9.8% | . | 3.8 | 0.706 | . | ? | -1.2 | O=C(c1ccco1)N1CCN(C(c2ccccc2)c2nnnn2Cc2cccs2)CC1 (centres undefined)
. | -3.3 | -6.7 | 0.683 | i | . | -2.4 | O=c1oc2ccc(C#CC3(O)CCCCC3)cc2cc1-n1cc(-c2ccccn2)nn1
-0.2% | . | 7.6 | 0.642 | . | 3.1 | -2.6 | Cc1[nH]c2ccccc2c1C(=O)CSCC(=O)O
. | -0.4 | 3.6 | . | i | . | -2.6 | CC(C)(C)OC(=O)C[C@H]1C/C=C\C[C@@H](CC(=O)NCCO)C(=O)NC[C@@H](c2ccccc2)OC1=O
. | 2.3 | -0.7 | 0.7 | i | 8.4 | 2.4 | O=C(NNC(=O)c1cccs1)c1ccco1
. | 1.5 | -1.6 | 0.692 | i | 3.6 | -1.6 | COc1ccc(C(=O)NC23CC4CC(CC(C4)C2)C3)cc1OC
? | . | 2.0 | 0.626 | . | -0.9 | 2.5 | CCc1sc(NC(=O)COC)nc1-c1ccccc1
. | -3.6 | 8.0 | 0.67 | i | 5.3 | 4.0 | O=C1NC(=Nc2ccccc2)S/C1=C\c1cccnc1
5.3% | . | -1.4 | 0.719 | . | 3.3 | -1.6 | O=C(Nc1cccc(S(=O)(=O)NC2=NCCC2)c1)c1cc(Cl)ccc1[N+](=O)[O-]
. | -0.3 | -1.0 | 0.723 | i | 3.6 | 1.8 | COc1ccccc1CCN1CCCC(CN(C)C(=O)c2ccco2)C1 (centres undefined)
1.7% | -2.4 | 8.1 | 0.657 | . | -1.6 | 6.2 | CNc1ncc(C(=O)c2ccc(Br)cc2)s1
0.1% | -0.7 | 0.4 | 0.642 | i | -2.7 | 1.8 | Cc1ccc(S(=O)(=O)N2CCCC(CCC(=O)NCc3ccccc3F)C2)s1 (centres undefined)
. | -2.5 | . | . | i | . | 0.9 | CCN(CC)C(=O)c1csc(COCCO)n1
-1.6% | 3.6 | 0.9 | 0.644 | i | 0.2 | -2.5 | CC(=O)Nc1ccc(NC(=O)CCCCCn2nnc3ccccc3c2=O)cc1
-3.5% | 2.1 | 1.5 | 0.566 | i | 4.9 | -1.8 | Cc1ccc(-c2cnc(SCCNC(=O)c3ccco3)[nH]2)cc1
0.4% | . | 1.4 | 0.664 | . | -2.3 | -1.3 | CCOC(=O)NC(CC(=O)O)c1ccc(OC)c(OC)c1 (centres undefined)
-4.5% | 5.6 | -0.8 | 0.735 | i | -0.3 | 2.9 | CCN(CC(=O)Nc1cc(Cl)ccc1C)C(=O)CCS(=O)(=O)c1ccc(C)cc1
. | 6.1 | 2.1 | 0.663 | i | . | -0.3 | O=C(c1ccccc1)c1ccc(C(=O)N2CCN(c3ccc(O)cc3)CC2)cc1
? | . | -112.1 | 0.732 | . | 5.2 | -2.4 | COC(=O)c1c(C)cc(C)n2c1nc1ccccc12
8.9% | -1.7 | 0.1 | 0.695 | i | -1.4 | 6.7 | CSc1nnc(CCCCCNC(=O)OC(C)(C)C)o1
5.0% | . | . | . | . | ? | -0.4 | O=C(CSc1nc2ccccc2s1)N/N=C/c1ccco1
-3.9% | -1.5 | 2.6 | 0.691 | i | -2.4 | -2.4 | O=Cc1cn(-c2ccccc2)nc1-c1ccncc1
. | -1.6 | 4.8 | 0.651 | i | . | -2.2 | CSCCC(NS(=O)(=O)c1ccc(Cl)cc1)C(=O)N1CCN(c2ccccc2)CC1 (centres undefined)
-40.0% | -2.3 | . | . | i | . | 6.1 | O=c1cc(-c2ccccc2)oc2ccc3ccccc3c12
-5.8% | 4.5 | 1.2 | 0.669 | i | . | 0.5 | CC(C)=CCC/C(C)=C/CNC(=O)C[C@H]1C[C@H](C(=O)N2CCOCC2)[C@@]2(C)c3[nH]c4cc(CCC(=O)N(C)C)ccc4c3CCN2C1=O
22.7% | . | 3.7 | 0.741 | . | -1.7 | 1.3 | CN(C1=C(N2CCCCC2)C(=O)c2ccccc2C1=O)c1ccccc1
-2.7% | . | 3.0 | 0.674 | . | 1.9 | -2.3 | Cc1csc(SCC(=O)Nc2nc(-c3ccccc3)cs2)n1
2.8% | 1.3 | . | . | i | . | 4.1 | CN(C1CCCCC1)S(=O)(=O)c1ccc2c(c1)c(=O)c(C(=O)O)cn2C
14.6% | . | . | . | . | -5.0 | 1.1 | Cc1nnc(C)n1/N=C/C=C/c1ccccc1
2.4% | -6.4 | 2.0 | 0.672 | i | 0.6 | 2.2 | COCc1ccc([C@@H]2C[C@H]3CN(Cc4cccc(Cl)c4)C(=O)[C@]34CCCN24)o1
1.8% | . | 5.8 | 0.69 | . | -0.1 | -1.6 | O=C(Nc1ncn[nH]1)c1c(Cl)ccc(Cl)c1Cl
-4.3% | -0.9 | 1.4 | 0.674 | i | -3.2 | -5.5 | O=C(N1CCCCC1)N1CCN(S(=O)(=O)c2ccc(Cl)cc2)CC1
. | -4.8 | . | . | i | . | -2.0 | OCC(O)C1OC(c2ccccc2)OC(CO)C1O (centres undefined)
. | -0.1 | . | . | i | 0.8 | 0.6 | COC(=O)N/N=C\c1ccc(OC/C=C/c2ccccc2)c(OC)c1
. | 0.0 | 5.3 | 0.686 | i | 6.5 | 1.8 | CCc1ccc(N(C(=O)c2ccco2)C(C(=O)NC2CCCC2)c2ccncc2)cc1 (centres undefined)
-15.7% | -13.0 | -308.6 | 0.613 | i | 0.7 | -1.2 | CC(C)(CNC(=O)c1cc(-c2ccc(Cl)s2)nc2ccccc12)N1CCOCC1
9.8% | . | 0.0 | 0.701 | . | 4.7 | 0.5 | COC(=O)CSc1nc(C2CC2)cc(C(F)(F)F)c1C#N
. | 2.2 | . | . | i | . | -1.2 | CCCCn1nnnc1C(c1cc2ccccc2o1)N1CCN(c2ccncc2)CC1 (centres undefined)
. | 2.8 | 4.8 | . | i | 4.9 | 0.8 | C[C@@]12C(=O)N(c3cccc(Br)c3)C(=O)N1[C@H](c1ccc(Cl)cc1)[C@@H]1C(=O)N(C3CCCCC3)C(=O)[C@@H]12
. | -0.7 | -0.3 | . | i | . | -1.6 | C[C@H](NC(=O)c1nc[nH]c1C(=O)NCc1ccccc1)c1ccccc1
6.4% | 2.9 | 5.0 | 0.749 | i | 4.6 | 1.0 | O=C(C1CCCN(S(=O)(=O)c2cnc[nH]2)C1)N1CCN(c2ccc(Cl)cc2)CC1 (centres undefined)
. | 3.6 | 4.5 | 0.649 | i | 2.7 | 0.8 | CN(C(=O)Cn1c(=O)oc2cc(S(=O)(=O)N3CCCC3)ccc21)C1CCCCC1
-3.3% | . | 4.0 | 0.663 | . | 7.0 | 10.1 | Oc1cccc(N2Cc3ccccc3C2)c1
27.8% | . | -1.4 | 0.686 | . | -0.9 | -0.7 | COc1ccc(CCn2c(NCc3ccco3)nc3c2c(=O)[nH]c(=O)n3C)cc1
9.6% | . | -0.1 | 0.701 | . | ? | 0.4 | CCCn1c(=O)n(C)c(=O)c2c(SCC(=O)NCc3ccco3)nc(C3CC3)nc21
. | -1.6 | 7.3 | 0.755 | i | 3.5 | 12.2 | N#C/C(=C\Nc1ccccc1SC(F)(F)F)c1nc(-c2ccc(Cl)cc2)cs1
. | -1.0 | 2.2 | 0.661 | . | -3.6 | 1.2 | Cc1ccc(S(=O)(=O)NCc2ccc3c(c2)OCO3)cc1C

Reprinted from the part before: two entries, then new ones.
Vif TR-FRET | AF4-AF9 inh | UCH37 DUB inh | E coli growth | FGF22 binding | RanGTP-Imp inh | HNF4A DNA FP | SMILES
. | -1.6 | 7.3 | 0.755 | i | 3.5 | 12.2 | N#C/C(=C\Nc1ccccc1SC(F)(F)F)c1nc(-c2ccc(Cl)cc2)cs1
. | -1.0 | 2.2 | 0.661 | . | -3.6 | 1.2 | Cc1ccc(S(=O)(=O)NCc2ccc3c(c2)OCO3)cc1C
0.4% | -2.8 | 2.5 | 0.616 | i | -0.8 | -1.3 | O=C(COc1ccc(Br)cc1)Nc1ccc(Cc2ccncc2)cc1
30.3% | . | 3.0 | 0.71 | . | ? | 1.7 | COC(=O)c1cccc(NC(=O)COC(=O)CSc2nc(C)cc(C)n2)c1
. | 2.3 | 1.2 | 0.679 | i | 4.5 | -1.1 | CCc1ccccc1NS(=O)(=O)c1c(C(=O)N2CCCCCC2)c(C)n(C)c1C
16.1% | 5.9 | 4.7 | 0.713 | i | -0.8 | 0.2 | O=C(Nc1cccc2oc(=O)ccc12)c1ccc([N+](=O)[O-])cc1[N+](=O)[O-]
? | . | 0.4 | 0.744 | . | . | -1.9 | Cn1c(=O)[nH]c(=O)c2c1nc(SCCN1CCCCC1)n2CCCc1ccccc1
. | -1.3 | -0.1 | 0.698 | i | 6.5 | 3.7 | COc1ccc(CCNC(=O)C(=O)NCC2OCCN2S(=O)(=O)c2ccc3c(c2)OCCO3)cc1 (centres undefined)
. | -0.8 | 1.0 | 0.682 | i | 3.1 | -0.6 | CCOC(=O)N1CCN(C(=O)C2CC(=O)N(c3ccccc3)C2)CC1 (centres undefined)
. | 0.4 | . | . | i | . | 2.9 | COCCNC(=O)C1(C)CCCN(C(=O)c2ccc(C#N)cc2)C1 (centres undefined)
. | -9.4 | . | . | i | 6.9 | 2.3 | CC(C)c1ccc(NC(=O)COC(=O)[C@H](CCC(N)=O)NC(=O)c2ccc(F)cc2)cc1
